Screening data (PubChem BioAssay)
CHT inh: inhibitors of human choline transporter CHT; B-score at 10 µM; actives 0.86% (n = 310,000); CHT-expressing cells, membrane potential dye, choline response; stronger effect = lower value; AID 488975, 2010;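 active = B-score over 3 SD under the library average, and starting fluorescence ratio not unusually high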;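 note: choline stimulus applied at its EC90 after an EC20 pre-addition; B-score computed on integrated fluorescence ratio after choline addition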
Target sequence (Q9GZV3 whole entry, looked up): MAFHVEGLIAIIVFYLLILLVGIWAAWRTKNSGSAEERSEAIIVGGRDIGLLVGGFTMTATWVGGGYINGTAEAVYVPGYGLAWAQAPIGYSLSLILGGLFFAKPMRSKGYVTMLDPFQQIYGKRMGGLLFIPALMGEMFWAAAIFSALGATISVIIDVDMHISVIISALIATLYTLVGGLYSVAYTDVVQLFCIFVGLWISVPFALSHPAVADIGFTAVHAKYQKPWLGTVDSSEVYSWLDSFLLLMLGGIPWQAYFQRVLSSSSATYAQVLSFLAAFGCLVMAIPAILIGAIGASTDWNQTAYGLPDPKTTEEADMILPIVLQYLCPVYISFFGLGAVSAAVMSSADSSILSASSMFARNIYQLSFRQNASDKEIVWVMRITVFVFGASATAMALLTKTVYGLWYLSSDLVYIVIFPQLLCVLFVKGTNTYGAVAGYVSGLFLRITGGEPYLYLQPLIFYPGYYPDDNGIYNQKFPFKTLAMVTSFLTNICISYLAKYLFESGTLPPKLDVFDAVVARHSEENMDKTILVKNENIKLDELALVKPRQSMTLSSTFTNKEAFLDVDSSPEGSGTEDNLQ
CHT allo act: CHT positive allosteric modulators, primary screen, cell-based, membrane potential dye, choline EC20; actives 0.49% (n = 310,000); CHT-expressing cells; stronger effect = higher value; LV-AA mutant CHT in HEK293 cells; B-score at 10 µM;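 active = initial fluorescence not abnormally high and integrated response B-score, plate-corrected, over 3 SD above library mean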
Calls only. The list is partial; most or all hits stand in other tables.

For CC(C)CCn1c(SCC(N)=O)nc2c1c(=O)n(C)c(=O)n2C the results were CHT inh inactive and CHT allo act inactive.
Cc1cc2ccccc2n2c(SCC(=O)NCc3cccs3)nnc12 was read as CHT inh inactive and CHT allo act inactive.
CCOCCCNc1nc(=S)[nH]c2cc(OC)c(OC)cc12 was read as CHT inh inactive and CHT allo act inactive.
CC(C)(C)CC(=O)Nc1nnc(SCC(=O)N2CCCCC2)s1 was read as CHT inh inactive and CHT allo act inactive.
For Cc1cccc(C(=O)NCc2ccc(S(N)(=O)=O)cc2)c1[N+](=O)[O-] the results were CHT inh inactive and CHT allo act inactive.
Screening O=C(CSc1ncn(-c2ccccc2)n1)Nc1nc(-c2ccccc2)cs1 returned CHT inh inactive and CHT allo act inactive.
`Cn1nccc1C(=O)N1CCN(c2ccc(F)cc2)CC1` gave CHT inh inactive and CHT allo act inactive.
For COc1ccc(NC(=O)NNC(=O)COc2ccc3cc(Br)ccc3c2)c(OC)c1 the results were CHT inh inactive and CHT allo act inactive.
Screening O=C(NCC(c1cccs1)N1CCOCC1)c1ccccc1NS(=O)(=O)c1ccc(Cl)cc1 (stereo not given) returned CHT inh inactive and CHT allo act inactive.
Screening COc1cccc2c(=O)cc(C)n(CC(=O)Nc3ccc(Br)cc3)c12 returned CHT inh inactive and CHT allo act inactive.
Screening O=C(c1cnccn1)N1CCN(S(=O)(=O)c2ccc3ccccc3c2)CC1 returned CHT inh inactive and CHT allo act inactive.
`CCOC(=O)N1CCN(C(=O)CSc2ncnc3ccccc23)CC1` gave CHT inh inactive and CHT allo act inactive.
`CCN(CC(=O)Nc1ccc(NC(C)=O)cc1)C(=O)CCCOc1cccc(C)c1` gave CHT inh inactive and CHT allo act inactive.
CC(c1ccccc1)n1cc(C(=O)NCC2CCCO2)nn1 (stereo not given) was read as CHT inh inactive and CHT allo act inactive.
`Cc1ccc(OCC(=O)NC(C)c2ccccc2)cc1C` (stereo not given) gave CHT inh inactive and CHT allo act inactive.
Screening Cc1nc(P(=O)(c2ccccc2)c2ccccc2)c(N2CCOCC2)o1 returned CHT inh inactive and CHT allo act inactive.
`COc1cc2c(cc1OC)CN(CC(=O)Nc1cccc([N+](=O)[O-])c1)CC2` gave CHT inh inactive and CHT allo act inactive.
Screening COc1cc(C(=O)OCC(=O)Nc2ccc(OC(F)F)cc2)cc(OC)c1OC returned CHT inh inactive and CHT allo act inactive.
For O=C(O)c1ccc(CN2C(=O)c3ccc(Oc4ccc([N+](=O)[O-])cc4)cc3C2=O)cc1 the results were CHT inh inactive and CHT allo act inactive.
CCC(=O)C1CCCN(C(=O)c2ccc(OC3CCN(C(=O)c4cccnc4)CC3)cc2)C1 (stereo not given) was read as CHT inh inactive and CHT allo act inactive.

Arranged by molecular weight (lowest first): 3 of the compounds above.
`COc1cc2c(cc1OC)CN(CC(=O)Nc1cccc([N+](=O)[O-])c1)CC2` gave CHT inh inactive and CHT allo act inactive.
CCC(=O)C1CCCN(C(=O)c2ccc(OC3CCN(C(=O)c4cccnc4)CC3)cc2)C1 (stereo not given) was read as CHT inh inactive and CHT allo act inactive.
For COc1ccc(NC(=O)NNC(=O)COc2ccc3cc(Br)ccc3c2)c(OC)c1 the results were CHT inh inactive and CHT allo act inactive.

(further entries)
CCN(CC)CCNC(=O)c1cc2ccccc2nc1Cl was read as CHT inh inactive and CHT allo act inactive.
COc1cc(OC)cc(C(=O)N2CCN(C(=O)Cc3ccccc3)CC2)c1 was read as CHT inh inactive and CHT allo act inactive.
Screening COc1ccc(CC(=O)OCC(=O)Nc2ncc(Cl)cc2Cl)cc1 returned CHT inh inactive and CHT allo act inactive.
Screening Cc1cc(C)n2nc(C(=O)N/N=C/c3c4ccccc4cc4ccccc34)nc2n1 returned CHT inh inactive and CHT allo act inactive.
Screening C#CCOCCOCCOCCNc1nc(N2CCOCC2)nc(N2CCN(C(=O)[C@H]([C@@H](C)CC)n3cc(CCCCN)nn3)CC2)n1 returned CHT inh inactive and CHT allo act inactive.
CCNS(=O)(=O)c1ccc(CCC(=O)Nc2ccc3c(c2)OCO3)cc1 was read as CHT inh inactive and CHT allo act inactive.
`COc1ccc(C(C)=O)cc1CSc1nc2ccccc2c(=O)n1-c1cccc(C)c1` gave CHT inh inactive and CHT allo act inactive.
`O=C(NCC1CCCO1)c1ccc(Br)o1` (stereo not given) gave CHT inh inactive and CHT allo act inactive.
CCN1CCc2c(sc(NC(=O)C3CCCCC3)c2C(=O)OC)C1 was read as CHT inh inactive and CHT allo act inactive.
`CC1CN(C(=O)c2cccc(COc3ccccc3Cl)c2)CC(C)O1` (stereo not given) gave CHT inh inactive and CHT allo act inactive.
`O=C(/C(=C/O)N=Nc1cccc(C(F)(F)F)c1)c1ccccc1` gave CHT inh inactive and CHT allo act inactive.
`CCOc1ccccc1N(CC(=O)N1CCC(C(N)=O)CC1)S(=O)(=O)c1ccc(SC)cc1` gave CHT inh inactive and CHT allo act inactive.
CC(/C=C1\SC(=S)N(CCC(=O)Nc2nc(C)cs2)C1=O)=C\c1ccccc1 was read as CHT inh inactive and CHT allo act inactive.
`O=C(O)c1ccc(CN(c2ccccc2)S(=O)(=O)c2ccccc2)cc1` gave CHT inh inactive and CHT allo act inactive.
`CCN1CCN(Cc2ccc(NC(=O)c3ccc(C)c(NC(=O)C4=NN(c5ccccc5)C(=O)C4)c3)cc2C(F)(F)F)CC1` gave CHT inh inactive and CHT allo act inactive.
Screening O=C(CCS(=O)(=O)c1ccc(Br)cc1)Nc1ccc(Br)cc1F returned CHT inh inactive and CHT allo act inactive.
Screening COc1ccc(NC(=O)CCCSc2ccccc2)cc1 returned CHT inh inactive and CHT allo act inactive.
`N#Cc1ccc(CSc2nnc(COc3ccccc3)n2-c2ccccc2)cc1` gave CHT inh inactive and CHT allo act inactive.
Cn1c(=O)c2c(nc(NCCCO)n2Cc2cccc(Br)c2)n(C)c1=O was read as CHT inh inactive and CHT allo act inactive.
For Fc1ccc(NC(=S)NCCc2ccccn2)cc1 the results were CHT inh inactive and CHT allo act inactive.
O=C(NCCc1ccccc1Cl)C1CCC(=O)N(CCCc2ccccc2)C1 (stereo not given) was read as CHT inh inactive and CHT allo act inactive.
`CCc1cccc(NC(=O)CCc2c(C)nn(-c3ccc(N4CCCCC4)nn3)c2C)c1` gave CHT inh inactive and CHT allo act inactive.
For Cc1ccc2cc(CCNC(=O)c3ccc(S(=O)(=O)N4CCOCC4)cc3)c(=O)[nH]c2c1C the results were CHT inh inactive and CHT allo act inactive.
Screening CN(CCc1cn[nH]c1)Cc1nc(Cc2ccccc2)no1 returned CHT inh inactive and CHT allo act inactive.
`O=c1c2c3c(sc2ncn1/N=C/c1cccnc1)CCCC3` gave CHT inh inactive and CHT allo act inactive.
`Cc1cc(C)cc(Oc2ccccc2C=O)c1` gave CHT inh inactive and CHT allo act inactive.
`N#CC(c1nc2ccccc2nc1N1CCCC1)S(=O)(=O)c1cccs1` (stereo not given) gave CHT inh inactive and CHT allo act inactive.
Screening O=C(O)/C=C/C(=O)N(CC1CCCO1)C1CC(=O)N(c2c(Cl)cccc2Cl)C1=O (stereo not given) returned CHT inh inactive and CHT allo act inactive.
For COc1ccc(/C=N/n2c(-c3n[nH]c4c3CCC4)n[nH]c2=S)cc1 the results were CHT inh inactive and CHT allo act inactive.
For Cc1cc(=O)[nH]c(N/N=C/c2c(F)c(F)c(F)c(F)c2F)n1 the results were CHT inh inactive and CHT allo act inactive.
For OC(COc1ccccc1)CSc1ncn[nH]1 (stereo not given) the results were CHT inh inactive and CHT allo act inactive.
C/C(=N\NC(=O)c1ccc(CSc2nncn2C)cc1)c1ccc2ccccc2c1 was read as CHT inh inactive and CHT allo act inactive.
`Cc1ccc(NS(=O)(=O)c2ccc3oc(=O)ccc3c2)cc1Cl` gave CHT inh inactive and CHT allo act inactive.
CC(=O)c1c(C)[nH]c(C(=O)NNC(=O)COc2ccc(Cl)cc2C)c1C was read as CHT inh inactive and CHT allo act inactive.
CCOC(=O)C1CCCN(C(=O)c2cn(CC)c3ccc(S(=O)(=O)N(C)C)cc3c2=O)C1 (stereo not given) was read as CHT inh inactive and CHT allo act inactive.
For CCOc1ccc(C(C)(N)C(=O)O)cc1 (stereo not given) the results were CHT inh inactive and CHT allo act inactive.
`CCCCN(Cc1ccccc1)C(=O)C1CCCN(S(=O)(=O)c2cnc[nH]2)C1` (stereo not given) gave CHT inh inactive and CHT allo act inactive.
Screening COc1c2c(cc3oc(C)cc(=O)c13)OC(C(C)(C)OC1OC(CO)C(O)C(O)C1O)C2 (stereo not given) returned CHT inh inactive and CHT allo act inactive.
Screening O=C(CC(NCCN1CCOCC1)C(=O)O)Nc1cccc(Cl)c1 (stereo not given) returned CHT inh inactive and CHT allo act inactive.
`OC1CCCN(C(=S)Nc2ccc(SC(F)F)cc2)C1` (stereo not given) gave CHT inh inactive and CHT allo act inactive.
`COc1cc(/C=C/C(=O)OCC(=O)N2CCc3ccccc3C2)ccc1O` gave CHT inh inactive and CHT allo act inactive.
`O=C(CSc1nc2ccccc2o1)N1c2ccccc2Sc2ccc(Cl)cc21` gave CHT inh inactive and CHT allo act inactive.
`C/C(=N/NS(=O)(=O)c1cc(C)ccc1C)c1ccncc1` gave CHT inh inactive and CHT allo act inactive.
O=C(Nc1nc2ccccc2s1)C1CCCO1 (stereo not given) was read as CHT inh inactive and CHT allo act inactive.
Screening Cc1ccc(-n2c(=O)cc(N3CCc4ccccc4C3)[nH]c2=O)cc1 returned CHT inh inactive and CHT allo act inactive.
`CC(C)(C)N1CCC1C(N)=O` (stereo not given) gave CHT inh inactive and CHT allo act inactive.
Screening O=C(NC(=O)c1cccc(OC(F)(F)C(F)F)c1)OC1CCS(=O)(=O)C1 (stereo not given) returned CHT inh inactive and CHT allo act inactive.
For CC(C)CN(C(=O)c1cc([N+](=O)[O-])cc([N+](=O)[O-])c1)C1CCS(=O)(=O)C1 (stereo not given) the results were CHT inh inactive and CHT allo act inactive.
COC(=O)c1ccc(CSc2ncnc3c2nnn3-c2ccc(OC)cc2)o1 was read as CHT inh inactive and CHT allo act inactive.
Screening COCCNC(=O)C1(C)Oc2ccccc2NC1=O (stereo not given) returned CHT inh inactive and CHT allo act inactive.
COc1cccc2cc(-c3csc(CCn4nc(C)cc4C)n3)c(=O)oc12 was read as CHT inh inactive and CHT allo act inactive.
Screening COCCn1c(CN2CCN(C(=O)c3ccco3)CC2)nc2c1c(=O)n(C)c(=O)n2C returned CHT inh inactive and CHT allo act inactive.
For CC1(C)Cc2c(ccc3ccccc23)/C(=C/C(=O)N2CCCCC2)N1 the results were CHT inh inactive and CHT allo act inactive.
`C/C(=N/NC(=O)CSc1ccccn1)c1ccc([N+](=O)[O-])cc1` gave CHT inh inactive and CHT allo act inactive.
N#Cc1cc2ccccc2nc1SCC(=O)Nc1ccccc1N1CCOCC1 was read as CHT inh inactive and CHT allo act inactive.
`O=C1c2ccsc2SCCN1Cc1cccc(F)c1` gave CHT inh inactive and CHT allo act inactive.
Screening COc1ccc(CCNC(=O)CC2Nc3cc(C)c(C)cc3NC2=O)cc1OC (stereo not given) returned CHT inh inactive and CHT allo act inactive.
For CCc1cc(=O)oc2cc(OCC(=O)OC)c(Cl)cc12 the results were CHT inh inactive and CHT allo act inactive.
For Cc1cccc(C)c1NC(=O)CN(C)C(=O)c1cccc(S(=O)(=O)N2CCN(C)CC2)c1 the results were CHT inh inactive and CHT allo act inactive.
For CCc1[nH]nc2c1C(c1ccc(C)o1)C(C#N)=C(N)O2 (stereo not given) the results were CHT inh inactive and CHT allo act inactive.
`O=C1CCC(=O)N1c1ccccc1` gave CHT inh inactive and CHT allo act inactive.
`O=C(NCC(=O)N(c1ccc(Cl)cc1)C(C(=O)NC1CCCC1)c1cccnc1)c1ccco1` (stereo not given) gave CHT inh inactive and CHT allo act inactive.

Gathered by group, the entries above containing an aryl methoxy group (15)
CCOCCCNc1nc(=S)[nH]c2cc(OC)c(OC)cc12 was read as CHT inh inactive and CHT allo act inactive.
For COc1ccc(NC(=O)NNC(=O)COc2ccc3cc(Br)ccc3c2)c(OC)c1 the results were CHT inh inactive and CHT allo act inactive.
Screening COc1cccc2c(=O)cc(C)n(CC(=O)Nc3ccc(Br)cc3)c12 returned CHT inh inactive and CHT allo act inactive.
`COc1cc2c(cc1OC)CN(CC(=O)Nc1cccc([N+](=O)[O-])c1)CC2` gave CHT inh inactive and CHT allo act inactive.
Screening COc1cc(C(=O)OCC(=O)Nc2ccc(OC(F)F)cc2)cc(OC)c1OC returned CHT inh inactive and CHT allo act inactive.
COc1cc(OC)cc(C(=O)N2CCN(C(=O)Cc3ccccc3)CC2)c1 was read as CHT inh inactive and CHT allo act inactive.
Screening COc1ccc(CC(=O)OCC(=O)Nc2ncc(Cl)cc2Cl)cc1 returned CHT inh inactive and CHT allo act inactive.
`COc1ccc(C(C)=O)cc1CSc1nc2ccccc2c(=O)n1-c1cccc(C)c1` gave CHT inh inactive and CHT allo act inactive.
Screening COc1ccc(NC(=O)CCCSc2ccccc2)cc1 returned CHT inh inactive and CHT allo act inactive.
For COc1ccc(/C=N/n2c(-c3n[nH]c4c3CCC4)n[nH]c2=S)cc1 the results were CHT inh inactive and CHT allo act inactive.
Screening COc1c2c(cc3oc(C)cc(=O)c13)OC(C(C)(C)OC1OC(CO)C(O)C(O)C1O)C2 (stereo not given) returned CHT inh inactive and CHT allo act inactive.
`COc1cc(/C=C/C(=O)OCC(=O)N2CCc3ccccc3C2)ccc1O` gave CHT inh inactive and CHT allo act inactive.
COC(=O)c1ccc(CSc2ncnc3c2nnn3-c2ccc(OC)cc2)o1 was read as CHT inh inactive and CHT allo act inactive.
COc1cccc2cc(-c3csc(CCn4nc(C)cc4C)n3)c(=O)oc12 was read as CHT inh inactive and CHT allo act inactive.
Screening COc1ccc(CCNC(=O)CC2Nc3cc(C)c(C)cc3NC2=O)cc1OC (stereo not given) returned CHT inh inactive and CHT allo act inactive.
